High-throughput results (PubChem)
Biofilm kill mix = clotrimazole potentiators killing C. albicans biofilm, primary screen, 4-compound mixtures. C. albicans biofilm persisters + clotrimazole, fluorescence viability; primary screen in compound mixtures of four per well. inhibition, % at 7.6 µM. 120,000 tested, 0.02% active;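 active = inhibition above 30.3% in the primary screen of four-compound pools, then above 30% when the compound was retested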;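 note: compounds exposed to preformed 24 h biofilms for 48 h; the number belongs to the whole pool; some results filed as inactive read as strong as hits; inactives centre near 12; 0% = biofilm with clotrimazole alone and 100% = kill control; retested singly at about 60 µM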
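Test system: C. albicans CAF4-2 wild-type biofilms; buffer or medium: RPMI/MOPS medium, pH 7.0; schedule: 24 h biofilm formation, then 48 h compound exposure, 37 °C; detection: Alamar Blue fluorescence; measure: percent inhibition of biofilm viability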
Active calls of the source: *.

SMILES	Biofilm kill mix
CNS(=O)(=O)c1cnccc1N1CCN(C)CC1	1
COc1ccc(NS(=O)(=O)c2cccc(C(=O)N/N=C/c3ccc(O)cc3)c2)cc1	4
Cc1cccn2c(=O)c(/C=C(\C#N)C(=O)NC3CCS(=O)(=O)C3)c(N3CCC(C(N)=O)CC3)nc12 (stereo unspecified)	13
Cn1c(N)c(C(=O)c2ccc(Oc3ccccc3)cc2)c(=O)n(C)c1=O	16
COc1cc(NC(=O)c2ccccc2Cl)ccc1NC(=O)c1cccs1	14
CC1=NN(c2ccc(C)cc2C)C(=O)C1C(c1cccc(O)c1)C1C(=O)N(c2ccc(C)cc2C)N=C1C (stereo unspecified)	19
CCOC(=O)N1CCN(C(=O)c2ccc(OC(C)=O)cc2)CC1	18
CCCN(Cc1ccccc1)C(=S)Nc1ccc(SC(F)F)cc1	25
C=CCC(=O)NC(C)c1cnn(-c2ccccc2C)c1C (stereo unspecified)	28
Cc1ccn2cc(CC(=O)O)nc2c1	12

Quoted from the listing.
COc1cc(NC(=O)c2ccccc2Cl)ccc1NC(=O)c1cccs1 in Biofilm kill mix = 14
Cn1c(N)c(C(=O)c2ccc(Oc3ccccc3)cc2)c(=O)n(C)c1=O in Biofilm kill mix = 16

Additional structures follow.
SMILES	Biofilm kill mix
CN(C)S(=O)(=O)N1CCCC(C(=O)c2ccc(-c3ccccc3)cc2)C1 (stereo unspecified)	-3
CC(=O)c1cccc(NC(=O)C(OC(=O)c2ccccc2NS(=O)(=O)c2cccs2)c2ccccc2)c1 (stereo unspecified)	10
CC(Nc1nc(N2CCNCC2)nc2ccccc12)c1ccccc1 (stereo unspecified)	6
COCCN1CCC(CNCc2cn[nH]c2-c2ccc(C)c(C)c2)C1 (stereo unspecified)	8
Cc1ncc(CN2CCN(Cc3ccccc3)C(CCO)C2)s1 (stereo unspecified)	8
COc1ccc(-c2nnc(SCC(=O)N3c4ccccc4Sc4ccccc43)o2)cc1	9
COc1ccc([N+](=O)[O-])cc1NC(=O)COC(=O)C1CC1	12
Cc1ccc(NC(=S)N(CCCN2CCOCC2)Cc2ccco2)cc1C	-4
Cn1ncc2cc(NC(N)=S)ccc21	11
COc1ccc(OC)c(/C=C2/Sc3ccccc3C2=O)c1	26
N#CN(Cc1ccccc1)Cc1ccccc1	18
CC(C)C[C@H](NC(=O)c1nc[nH]c1C(=O)N1CCN(C(=O)OC(C)(C)C)CC1)C(=O)OC(C)(C)C	18
COc1ccc(/C=C(\NC(=O)c2ccc(OCC(C)C)cc2)C(=O)OCc2ccco2)cc1	15
COc1cccc(C(=O)NCc2nnc(SCC(=O)Nc3nccs3)n2-c2cccc(C)c2)c1	16
O=C(O)CCc1ccc(-c2cccs2)n1NC(=O)c1cccs1	12
O=C(/C=C/c1ccccc1)NCC(=O)N/N=C/c1ccccc1[N+](=O)[O-]	19
O=P(CCO)(c1ccccc1)c1ccccc1	17
O=C1CCCN1CCCNC(=S)Nc1ccc(Cl)cc1Cl	4
CCc1ccccc1N(C(C)=O)c1nc(CN=C=S)cs1	12
Cc1ccc2c(c1)N(CC(=O)N(Cc1ccccn1)Cc1ccco1)C(=O)C(C(C)C)O2 (stereo unspecified)	-5
COC(=O)C1C(c2ccccc2)C(C(=O)OCc2ccco2)C1c1ccccc1 (stereo unspecified)	7
CC1=C(C(=O)OCc2ccccc2)C(c2cccc([N+](=O)[O-])c2)NC(=O)N1CCCCCC(=O)O (stereo unspecified)	20
O=C(CN1CCC(O)(c2cccc(F)c2)CC1)NCCc1c[nH]c2ccccc12	21
CC(C)CC1NC(=O)N(CCCCN2C(=O)c3ccccc3C2=O)C1=O (stereo unspecified)	2
O=C(/C=C/c1ccccc1O)c1ccc(Cl)cc1	18
COc1ccc(C2=NN(C(=O)c3cccs3)C(c3ccccc3OC)C2)cc1OC (stereo unspecified)	-30
O=C(NC1CC1)C1=C[C@@H](C2CCCCC2)C[C@@H](OCCCCO)O1	21
COc1ccc(S(=O)(=O)N2CCCC(C(=O)NCc3ccc4c(c3)OCO4)C2)cc1 (stereo unspecified)	16
COc1ccc(C(CC(=O)N2CCN(c3ccccc3)CC2)c2c(O)cc(OC)cc2OC)cc1 (stereo unspecified)	13
COc1ccc(/C=N/Nc2nnc(Cc3ccccc3)c(=O)[nH]2)cc1OC	11

In the list so far, these contain a Cl atom:
SMILES	Biofilm kill mix
COc1cc(NC(=O)c2ccccc2Cl)ccc1NC(=O)c1cccs1	14
O=C1CCCN1CCCNC(=S)Nc1ccc(Cl)cc1Cl	4
O=C(/C=C/c1ccccc1O)c1ccc(Cl)cc1	18

Continued:
SMILES	Biofilm kill mix
CCCNC(=O)C(=O)NCc1ccccn1	-3
COc1ccc2cc3cc(C(=O)NCCCN4CCc5ccccc5C4)sc3nc2c1	-8
O=C(CBr)N1CCc2ccccc2C(c2ccccc2)C1 (stereo unspecified)	21
N=C1/C(=C\c2coc3ccc(O)cc3c2=O)C(=O)N=C2SC=CN12	18
C=CCNC(=O)c1c(Cl)cnn1-c1ccc(C)cc1	7
CS(=O)(=O)N(Cc1ccc(C(=O)N2CCc3ccccc3C2)cc1)c1ccccc1	6
CCc1cccc(CC)c1NC(=S)Nc1ccc2cn[nH]c2c1	55
O=C(N/N=C/C(c1ccccc1)c1ccccc1)c1ccccc1F	-8
O=c1c2ccccc2nc(SCCN2CCCCC2)n1CCc1ccccc1	-8
CC1=NN(c2ccc(Cl)c(C(=O)O)c2)C(=O)/C1=C\c1ccc(-c2ccc(C(=O)O)cc2)o1	-4
CC1(C)CC(=O)C2=C(C1)Nc1ccccc1NC2c1cccs1 (stereo unspecified)	21
Cn1c(SCc2c(F)cccc2Cl)nc2c(c1=O)SCC2	6
CCOc1cccc(/C(O)=C2/C(=O)C(=O)N(CCN3CCOCC3)C2c2ccncc2)c1 (stereo unspecified)	25
O=c1c(Oc2ccccc2F)coc2cc(OCc3cnn(-c4ccccc4)c3)ccc12	18
CCc1ccc(Nc2nnc(SCC(=O)Nc3ccc(C(=O)O)cc3)s2)cc1	14
CC(C)(O)CNC(=O)Nc1ccc(Cl)c(Cl)c1	19
Cc1ccc(C(=O)NCCN2C3=NC[C@@H](Cc4ccccc4)N3C[C@H]2Cc2ccc(O)cc2)cc1Br	4
CN(CCO)CC(O)Cn1cnc2c1c(=O)n(C)c(=O)n2C (stereo unspecified) (tested in a mixture with another compound)	8
O=C(/C=C/c1ccc2c(c1)OCO2)NCCCN1CCOCC1	10
COc1ccc(OC)c(Cc2nnc(CCC(=O)NCc3ccc(C)s3)o2)c1	17
CC1=C(C)CC(C(=O)NC(C)CCc2ccccc2)C(C(=O)O)C1 (stereo unspecified)	-32
O=Cc1cn(CCC(=O)O)nc1-c1cc2ccccc2o1	8
Cc1cc(C(=O)COC(=O)C2CCN(C(=O)c3ccc(Cl)cc3)CC2)c(C)n1CC1CCCO1 (stereo unspecified)	15
Cc1ccc(NC(=S)NCc2ccc(S(N)(=O)=O)cc2)cc1Cl	4
O=C(N/N=C/c1ccccc1OC(F)F)c1cc(-c2ccncc2)nc2ccccc12	9
CC(C)CCN1CCN(Cc2ccc(Oc3ncccn3)cc2)CC1CCO (stereo unspecified)	0
O=C(c1ccc(COCC(F)(F)F)cc1)N1CCN(c2ccccn2)CC1	12
OCC1(CCOc2ccccc2)CCN(Cc2cn[nH]c2-c2ccccc2)CC1	1
Cc1ccccc1Cn1nnc2c1C(=O)c1ccccc1C2=O	25
Cc1ccc(-c2csc(N=C(N)N)n2)cc1	15
N#Cc1c(N)n(-c2ccc(C(=O)O)cc2)c2nc3ccccc3nc12	21
O=C(CSc1nnc(SCc2ccccc2)s1)N/N=C/c1c(Cl)cccc1Cl	5
Cc1ccc(NC(=O)CC2S/C(=N/N=C/C=C/c3ccccc3)NC2=O)cc1Cl (stereo unspecified)	8
COc1ccc(C2C(C#N)=C(N)Nc3nc4ccccc4n32)cc1 (stereo unspecified)	17
O=C(COC(=O)c1c(F)cccc1F)Nc1ccc2[nH]c(=O)[nH]c2c1	14
Cc1ccc(N2C(=O)C3N=NN(CC(=O)N4N=C(c5cccc6ccccc56)CC4c4ccccc4)C3C2=O)cc1 (stereo unspecified)	7
O=C(CNC(=O)C1CCCCC1)Nc1ccccc1	4
OC(COC(c1ccccc1)c1ccccc1)CN1CCCCC1 (stereo unspecified)	9
CC(C)CNC(=S)N1CCN(Cc2ccc3c(c2)OCO3)CC1	17
O=C(/C=C/c1ccco1)Nc1cc(Cl)ccc1C(=O)O	17

In the list so far, these have a cyano group.
SMILES	Biofilm kill mix
Cc1cccn2c(=O)c(/C=C(\C#N)C(=O)NC3CCS(=O)(=O)C3)c(N3CCC(C(N)=O)CC3)nc12 (stereo unspecified)	13
N#CN(Cc1ccccc1)Cc1ccccc1	18
N#Cc1c(N)n(-c2ccc(C(=O)O)cc2)c2nc3ccccc3nc12	21
COc1ccc(C2C(C#N)=C(N)Nc3nc4ccccc4n32)cc1 (stereo unspecified)	17

The list goes on:
SMILES	Biofilm kill mix
Cc1cccc(NC(=O)CSC2=NN3CCCC(=O)N=C3S2)c1C	17
CC(=O)CC1(OC(C)=O)C(=O)N(C)c2ccccc21 (stereo unspecified)	25
NC(=O)CN(c1ccc(Cl)cc1)S(=O)(=O)c1ccccc1	4
CCSc1ncccc1C(=O)N[C@@H](CCSC)C(=O)OC	23
O=C(O)c1ccc(CSc2nnc(-c3ccco3)n2-c2ccccc2)cc1	16
O=[N+]([O-])c1ccc(N2CCOCC2)cc1O	21
Cc1ccc(Oc2nnc(-c3ccc(C)cc3)c3ccccc23)cc1	7
CC(CC(=O)Nc1ncc([N+](=O)[O-])s1)c1ccccc1 (stereo unspecified)	6
COc1ccccc1CNC(=O)CSc1ccc(Br)cc1	18
CCOc1cc(CNc2ccc(S(N)(=O)=O)cc2)ccc1OCC(=O)NC(C)(C)C	9
N#Cc1cccc(Nc2c3c(nc4ccccc24)CCCC3)c1	19
CCCCc1ccc(NC2=NCC(=O)N2CCc2ccccc2)cc1	29
CCOC(=O)c1c(C)[nH]c(C(=O)N/N=C\c2ccccc2Cl)c1C	22
COc1cc(C(=O)NCC(=O)OC(C)C(=O)Nc2ncc(Cl)cc2Cl)cc(OC)c1OC (stereo unspecified)	6
CCN(CC)CCCNc1ncnc2ccccc12	15
O=C(O)C1CCN(c2ccc(S(=O)(=O)N3CCOCC3)cc2[N+](=O)[O-])CC1	19
Cc1nonc1OCC(C)(COc1nonc1C)NC(=O)c1ccc(Cl)cc1	9
COC(=O)c1cnn2c(C(F)(F)F)cc(-c3ccccc3)nc12	14
O=c1[nH]cnc2c1ncn2[C@@H]1O[C@H](CO)[C@@H](O)[C@H]1O	-4
O=C(NCc1cccs1)C1CC(c2ccc(Cl)c(Cl)c2)=NO1 (stereo unspecified)	13
CO/N=C/C(C#N)=C/c1ccc(OC)c(OC)c1	12
CCOc1ccc(NC(=S)Nc2ccc3nsnc3c2)cc1	12
Cc1ccc(S(=O)(=O)N2CCC(=O)N(CCOCc3ccccc3)CC2)cc1	7
COC(=O)c1cc(=O)n2c(sc3ccccc32)c1C#N	19
CCOC(=O)c1c(C)[nH]c(C)c1C(=O)COC(=O)CNC(=O)C1CCCCC1	3
C/C(=N\NC(=O)c1ccccc1O)c1cccs1	3
COc1ccccc1Nc1nccc(N(C)C)c1C#N	16
O=C(NC(=S)Nc1ccccc1N1CCCCC1)c1cccs1	11
Cc1nc2scc(-c3ccc(C(C)C)cc3)c2c(=O)n1N	13
O=C(Cn1ccc([N+](=O)[O-])n1)Nc1nc2ccccc2s1	19

4 entries from above, field by field:
Cc1ccccc1Cn1nnc2c1C(=O)c1ccccc1C2=O
  Biofilm kill mix: 25
Cc1ccc(-c2csc(N=C(N)N)n2)cc1
  Biofilm kill mix: 15
N#Cc1c(N)n(-c2ccc(C(=O)O)cc2)c2nc3ccccc3nc12
  Biofilm kill mix: 21
O=C(CSc1nnc(SCc2ccccc2)s1)N/N=C/c1c(Cl)cccc1Cl
  Biofilm kill mix: 5

Additional structures
SMILES	Biofilm kill mix
COc1ccc(C(O)Cn2cc([N+](=O)[O-])nc2C)cc1 (stereo unspecified)	3
COc1ccccc1NC(=S)NC1CCCCC1	14
Fc1cc(F)cc(NC(=S)N2CCC(c3ccccc3)C2)c1 (stereo unspecified)	12
CC(=O)c1ccc(NC(=O)c2cc(Cl)nc3ccccc23)cc1	12
CCOC(=O)N1CCC(NCCNC(=O)c2ccco2)CC1	16
Cc1c(NC(=O)COC(=O)c2cc(-c3ccc(-c4ccccc4)cc3)nc3ccccc23)c(=O)n(-c2ccccc2)n1C	11
CCOC(=O)c1csc(NC(=O)c2cc3ccccc3o2)n1	23
COc1ccc(-c2coc3cc(O)ccc3c2=O)cc1O	21
Cc1nnc(SCC2=C(C(=O)O)N3C(=O)C(NC(=O)c4cc(F)c(F)cc4Cl)C3SC2)s1 (stereo unspecified)	0
CN(Cc1cccnc1)Cc1c(C(=O)N2CCc3ccccc3C2)nc2ccc(Cl)cn12	-1
CCOC(=O)COc1ccccc1/C=N/O	18
CC(C)(C)c1nn2cnnc2n(/N=C/c2ccccc2)c1=O	24
O=[N+]([O-])c1ccc(Cl)cc1Sc1nc2ccccc2o1	-2
O=C1CC(=C2c3ccccc3-c3ccccc32)C(=O)N1CCCCN1CCN(c2ccccc2)CC1	15
COc1cccc(CNC(=O)CCC2CCCN(C(=O)c3ccc(OC)c(F)c3)C2)c1 (stereo unspecified)	2
O=C(NCCc1ccc(Cl)cc1)c1cc(-c2ccncc2)nc2ccccc12	19
O=C(COc1ccc(-c2nnco2)cc1)NCc1ccccc1Cl	-3
CC(C)(C)c1c(Cl)c(O)c(-c2ccccc2)c(=O)n1-c1ccccc1	13
N=c1sccn1CC(=O)NCc1ccc(Cl)cc1Cl	8
O=C(Oc1cc(=O)oc2c1c(=O)n1c3c(cccc23)CC1)c1ccccc1	10
CCOC(=O)c1sc2nc(C)nc(Nc3ccc(OC)cc3)c2c1C	15

This is a subset, so the mix of outcomes need not match the whole.
